Bioassay records: PubChem, several laboratories
CBX7 AlphaScr – CBX7 inhibition, primary AlphaScreen; O95931; AlphaScreen His6-CBX7 / biotin-H3K27me3 peptide binding; active compounds read low; normalised signal (fraction of DMSO) (no concentration beside the values); 1.1% of 66,000 active; in the data active = normalised signal below about 0.5;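 also: 100 nL library stock added to about 20 µL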
Target sequence (O95931 whole entry, looked up): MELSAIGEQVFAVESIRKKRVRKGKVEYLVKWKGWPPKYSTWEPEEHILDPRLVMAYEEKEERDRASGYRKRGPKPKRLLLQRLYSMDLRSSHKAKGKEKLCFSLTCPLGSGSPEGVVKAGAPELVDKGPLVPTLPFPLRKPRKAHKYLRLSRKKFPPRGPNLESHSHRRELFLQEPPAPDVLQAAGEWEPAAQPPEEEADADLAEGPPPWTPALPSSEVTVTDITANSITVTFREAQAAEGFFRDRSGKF
CBX7 AlphaScr z-score – also measured in CBX7 AlphaScr; calls as there; z-score; measured here: z-score of CBX7 signal; some inactives read as strong as hits; reference of the scale not given here;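 same signal on another scale; lower means less binding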
The depositor's hits bear a star. This is a subset, so the mix of outcomes need not match the whole.

SMILES	CBX7 AlphaScr	CBX7 AlphaScr z-score
CCn1c(C(=O)N2CCCC(C(=O)NCCCN3CCOCC3)C2)cc2sccc21 (stereo not drawn)	1.1	2.3
Cc1cccc(Nc2nnc(-c3ccc(C)c(S(=O)(=O)NC(C)(C)C)c3)c3ccccc23)c1	0.78	-4.1
COc1cccc(C2=NOC(C(=O)NCCN3CCOCC3)C2)c1 (stereo not drawn)	1	0.33
Cc1cccc(-c2nnc(NC(=O)c3ccc(Cl)cc3)o2)c1	0.86	-2.2
Cc1oc(-c2ccccc2Cl)nc1CS(=O)(=O)CC(=O)N1CCOCC1	1	-0.12
COc1ccccc1NC(=O)CCC(=O)Nc1ccc2nc(N3CCOCC3)cc(C)c2c1	1	1.7
CCC(=O)N1CCc2cc(Br)cc(S(=O)(=O)NCCCN3CCCCCC3)c21	0.98	-0.94
COc1cc(SC)ccc1C(=O)NCCNC(=O)c1nonc1N	0.93	-1
Cc1ccc2nc(-c3c[nH]c4ccccc34)c(Nc3ccc(F)cc3)n2c1	0.97	-0.58
Cc1ccccc1NC1=NS(=O)(=O)c2ccccc21	1	-0.076
FC(F)(F)c1cc(-c2ccccc2)nc(N2CCN(Cc3ccccc3)CC2)n1	1.3	3.5
O=C(Cn1nc(-c2ccccc2)c2cc(Cl)ccc21)NCC1CCCO1 (stereo not drawn)	0.97	-0.83
Cc1ccc2nc(-c3ccc(NC(=O)COc4ccc(Br)cc4)cc3)sc2c1	1	0.054
O=C(Nc1ccc2nc3n(c(=O)c2c1)CCCCC3)c1cc2ccccc2[nH]1	1	1.1
CCCc1noc(-c2cc(-c3ccc(F)cc3)nc3ccccc23)n1	1.6	0.6
O=C(O)c1nc2nc(-c3cccs3)cc(C(F)(F)F)n2n1	0.83	-4.1
COc1ccc(-c2csc(NC(=O)C3CC3)n2)cc1	0.99	-0.3
COc1cc(C2C(=O)N(C3CCCCCC3)CC(=O)N2Cc2ccccc2)ccc1OC(C)C (stereo not drawn)	0.81	-3.5
O=C(Cn1ncc2c1-c1ccccc1OC2)NCCN1CCOCC1	0.99	-0.12
Cc1nc2c(C(=O)NCCCN3CCOCC3)cnn2c(C)c1Cc1ccccc1Cl	1	-0.057
Cc1nc2c(C)nn(-c3ccccc3)c2s1	0.82	-2
COc1ccc(OC)c(NC2c3ccccc3C(=O)N2c2cccnc2)c1 (stereo not drawn)	0.88	-2.2
Oc1ccccc1-c1nc(-c2ccccc2)c(-c2ccc(F)cc2)[nH]1	0.58	-6.5
O=C(COc1ccc(Br)cc1)Nc1c(C(=O)c2ccccc2)oc2ccccc12	1.1	0.28
CCCc1c2c(nn1-c1ccccc1F)CC(c1ccccc1)CC2=O (stereo not drawn)	1.1	2.9
COc1ccc(NS(=O)(=O)c2ccc3c(c2)CC(=O)N3)cc1	0.95	-1.2
CC(C)NC(=O)c1ccc2c(=O)n3c(nc2c1)CCCCC3	1	0.37
CCCCN(CCCC)C(=O)c1ccc(CNc2c(NC3CCCC3)c(=O)c2=O)cc1	0.92	-0.19
COc1ccc(CN2C(=O)Cn3cccc3C2C(=O)NC2CCCCC2C)cc1 (stereo not drawn)	1	0.45
COC(=O)Cc1nc(Nc2ccccc2F)c2c(C)c(C)sc2n1	0.94	-0.058
CCc1nnc(NC(=O)CSc2nc3ccccc3[nH]2)s1	0.91	-1.2
N#Cc1nc(COc2ccccc2F)oc1N1CCCC1	0.88	-5.2
Cc1ccccc1Nc1c(-c2ccc(Cl)cc2)nc2ccc(Br)cn12	1.1	1.5
CC1(C)OC2OC(C(=O)Nc3ccc(F)c(Cl)c3)C3OC(C)(C)OC3C2O1 (stereo not drawn)	1.1	0.7
O=C(NCCCN1CCCCC1)c1ccc2c(c1)NC(=O)c1ccccc1S2	1.1	0.89
Cc1cc(C)n2c(Nc3ccccc3)c(-c3cccc(Cl)c3)nc2n1	0.86	-1.6

Part of the list above, comma-delimited:
SMILES,CBX7 AlphaScr,CBX7 AlphaScr z-score
COc1ccc(NS(=O)(=O)c2ccc3c(c2)CC(=O)N3)cc1,0.95,-1.2
CC1(C)OC2OC(C(=O)Nc3ccc(F)c(Cl)c3)C3OC(C)(C)OC3C2O1 (stereo not drawn),1.1,0.7

(listing goes on)
SMILES	CBX7 AlphaScr	CBX7 AlphaScr z-score
COc1ccc(CCNC(=O)CCCCCN2C(=O)c3ccccc3C2=O)cc1OC	1	0.36
CCN(CCNC(=O)c1ccc2c(c1)NC(=O)c1ccccc1S2)c1ccccc1	0.97	-0.93
CCCn1c(/C=C/c2ccccc2)nc2ccccc21	1.3	10
COc1ccc(CCNc2oc(COc3ccc(Br)cc3)nc2C#N)cc1	0.86	-6.2
Cc1c(C)n(CC(O)CNCCCO)c2ccccc12 (stereo not drawn)	0.87	-1.3
O=C(NCC1CCCO1)c1ccc2c(c1)C(=O)N(c1ccccc1-c1ccccc1)C2=O (stereo not drawn)	1.1	2.2
O=C(Nc1cccc2c1C(=O)NC2=O)c1ccc(Oc2ccccc2)cc1	1	0.75
O=c1cc(Cc2nnc(SCc3ccc(Cl)cc3)n2-c2ccc(F)cc2)[nH]c(=O)[nH]1	1	0.04
Cc1cccc(CN2CCN(CC(=O)NC3CCC(C)CC3)C2=O)c1 (stereo not drawn)	1	-0.023
COc1cccc(-c2nnc(SCC(=O)N3CCN(c4ccccc4)CC3)o2)c1	0.94	-0.13
O=C1CC(Nc2ccc(F)cc2)C(=O)N1c1ccccc1Cl (stereo not drawn)	1.1	2.5
CN(C)CCNC(=O)c1ccc2c(c1)N(Cc1ccc(F)cc1Cl)C(=O)CS2	1	0.49
CCn1c(=O)c(-c2ccc3ccccc3n2)cc2cc(Cl)ccc21	1.4	6.9
CCOc1ccc(C(=O)c2cn(Cc3cccc(OC)c3)c3ccccc3c2=O)cc1	0.63	-3.6
CCOCCCNC(=O)C1CCCN(c2nc3ccccc3[nH]2)C1 (stereo not drawn)	0.92	-0.97
O=C(NCc1ccc(F)cc1Cl)c1cc(=O)[nH]c2ccc(S(=O)(=O)N3CCCCC3)cc12	0.96	-0.48
CCC(=O)Nc1cccc(-c2nc3cc(C)c(C)cc3o2)c1C	1.1	1.2
O=C(c1cc2c(s1)-c1ccccc1OC2)N1CCN(Cc2ccccc2)CC1	1.2	8
COc1ccc(-c2nc(Nc3ccccc3F)c3ccccc3n2)cc1OC	1	0.1
Cc1nc(N2CCCCC2C)c2c(C)c(C(=O)NC3CCCCC3)sc2n1 (stereo not drawn)	1	0.86
CCCCOc1ccc(N2C(=O)CC(N3CCOCC3)C2=O)cc1 (stereo not drawn)	0.99	-0.25
CCOc1cc2[nH]c(=O)n(CCC(=O)NCc3ccccn3)c(=O)c2cc1OCC	1	0.4
COc1cccc(CN2C(=O)CCC2(C)C(=O)NC2CCCCCC2)c1 (stereo not drawn)	1.3	3.6
CNS(=O)(=O)c1cc(-c2nnc(Nc3ccccc3)c3ccccc23)ccc1C	0.99	-0.097
COc1nnc(-c2ccc(C)c(S(=O)(=O)NCCO)c2)c2ccccc12	1.1	1.4
COc1ccc(-n2c3c(cc(C(=O)NCCc4ccccc4)c2=O)C(=O)CC(C)(C)C3)cc1	1	0.86
COC(=O)c1ccc(C(=O)NCCc2c(C)[nH]c3ccc(OC(F)(F)F)cc23)cc1	1	0.049
COc1ccc(CNC(=O)C2CCCN(c3nnc(-n4cccc4)s3)C2)cc1 (stereo not drawn)	1	0.051
CCOC(=O)c1cc(-c2ccc(OC)cc2)n(CCC(=O)Nc2cc(C)ccc2OC)c1C	0.85	-3.6
CCOc1ccc(NC(=O)CC2C(=O)N(c3cccc(OC)c3)C(=O)N2C(C)C)cc1 (stereo not drawn)	1.1	2.1
Cc1ccc(C2CC(c3ccccc3C)n3nnnc3N2)cc1 (stereo not drawn)	0.99	-0.49
COc1ccc(CCNC(=O)CC2Oc3ccccc3NC2=O)c(OC)c1 (stereo not drawn)	1.3	1.8
Cc1cccc(NS(=O)(=O)c2ccc3c(c2)CCN3C(=O)C2CCC2)c1	0.89	-3.1
CCCCNC(=O)c1ccc2c(c1)N(Cc1ccc(F)cc1)C(=O)CS2	0.86	-1.5
Cc1cc2ccccc2c(=O)n1CC(=O)NCCCN1CCC(C)CC1	1.1	1.9
CCCCOc1ccc(C(=O)Nc2ccc(-c3nc4ccccc4[nH]3)cc2)cc1	1.3	2
O=C(Sc1nc(-c2ccccc2)[nH]c1S(=O)(=O)c1ccccc1)c1ccccc1	0.87	-0.56
CCCCC(=O)Nc1cc(-c2nc3ncccc3o2)ccc1C	0.97	-1
O=C(NCc1ccc(F)cc1)c1nn2c(c1Cl)NC(c1ccco1)CC2C(F)(F)F (stereo not drawn)	1.1	0.9
CCSc1oc(-c2ccccc2)nc1S(=O)(=O)c1ccc(Br)cc1	1.1	3.5
COc1ccc(-c2cc(C(=O)Nc3ccc(Cl)cc3)c3ccccc3n2)cc1OC	1.1	1.8
COc1ccc(OC)c(NC(=O)c2cc3c(n(-c4ccc(C)cc4)c2=O)CCCC3=O)c1	0.96	-0.97
CC(=O)N1CCc2cc(S(=O)(=O)NC3CCCc4ccccc43)ccc21 (stereo not drawn)	0.96	-0.88
CCN1CCC2(CC1)CC1CC3C=CC1(CN2C(C)=O)O3 (stereo not drawn)	1.1	2.2
Cc1ccnc(Nc2nc(-c3ccc(Cl)cc3)cs2)c1	1.1	1.3
COc1cc2c(cc1OC)C(C(=O)NCCN1CCOCC1)C1c3ccccc3CCN1C2=O (stereo not drawn)	1	-0.096
CC1CC(C)CN(C(=O)Cn2ccc3ccccc3c2=O)C1 (stereo not drawn)	1.1	0.78
COc1ccc2c(c1)CCc1c(C(=O)Nc3cccc(Cl)c3C)noc1-2	1	0.52

Copied from the entries so far (15 entries):
SMILES	CBX7 AlphaScr	CBX7 AlphaScr z-score
CCCCNC(=O)c1ccc2c(c1)N(Cc1ccc(F)cc1)C(=O)CS2	0.86	-1.5
Cc1cc2ccccc2c(=O)n1CC(=O)NCCCN1CCC(C)CC1	1.1	1.9
CCCCOc1ccc(C(=O)Nc2ccc(-c3nc4ccccc4[nH]3)cc2)cc1	1.3	2
O=C(Sc1nc(-c2ccccc2)[nH]c1S(=O)(=O)c1ccccc1)c1ccccc1	0.87	-0.56
CCCCC(=O)Nc1cc(-c2nc3ncccc3o2)ccc1C	0.97	-1
O=C(NCc1ccc(F)cc1)c1nn2c(c1Cl)NC(c1ccco1)CC2C(F)(F)F (stereo not drawn)	1.1	0.9
CCSc1oc(-c2ccccc2)nc1S(=O)(=O)c1ccc(Br)cc1	1.1	3.5
COc1ccc(-c2cc(C(=O)Nc3ccc(Cl)cc3)c3ccccc3n2)cc1OC	1.1	1.8
COc1ccc(OC)c(NC(=O)c2cc3c(n(-c4ccc(C)cc4)c2=O)CCCC3=O)c1	0.96	-0.97
CC(=O)N1CCc2cc(S(=O)(=O)NC3CCCc4ccccc43)ccc21 (stereo not drawn)	0.96	-0.88
CCN1CCC2(CC1)CC1CC3C=CC1(CN2C(C)=O)O3 (stereo not drawn)	1.1	2.2
Cc1ccnc(Nc2nc(-c3ccc(Cl)cc3)cs2)c1	1.1	1.3
COc1cc2c(cc1OC)C(C(=O)NCCN1CCOCC1)C1c3ccccc3CCN1C2=O (stereo not drawn)	1	-0.096
CC1CC(C)CN(C(=O)Cn2ccc3ccccc3c2=O)C1 (stereo not drawn)	1.1	0.78
COc1ccc2c(c1)CCc1c(C(=O)Nc3cccc(Cl)c3C)noc1-2	1	0.52

(next part)
SMILES	CBX7 AlphaScr	CBX7 AlphaScr z-score
CCOC(=O)c1ccc(NC(=O)c2cc3c(s2)-c2ccccc2OC3)cc1	1.1	1.4
CC(C)CCNC(=O)c1cc(-c2ccncc2)nc2ccc(S(=O)(=O)N3CCOCC3)cc12	1.1	0.88
O=C(Nc1cccc(-c2nc3ncccc3o2)c1)c1ccccc1	0.85	-1.6
Cc1sc2ncnc(N3CCN(c4cccc(C(F)(F)F)c4)CC3)c2c1C	1	0.019
Cn1nc(-c2ccc(N3CCOCC3)c(NC(=O)COc3ccccc3)c2)c2ccccc2c1=O	0.96	-1.1
CC(C)CSc1oc(-c2ccccc2)nc1S(=O)(=O)c1ccc(Cl)cc1	1.2	8.1
COc1ccc2oc(=O)c(-c3nnc(-c4ccc(C)cc4)o3)cc2c1	0.85	-1.7
Cc1ccc(NC(=O)c2ccc(CNc3c(N4CCC(C)CC4)c(=O)c3=O)cc2)cc1Cl	1.1	0.93
CCCSCCCNC(=O)C1CCCN(c2nc3ccc(OCC)cc3s2)C1 (stereo not drawn)	0.93	-0.87
Fc1ccccc1-c1nc(NC2CCCCCC2)c2ccccc2n1	1	0.85
CCn1c(NC(=O)Nc2ccc(C)cc2Cl)cc2sccc21	1.1	2.2
COc1ccc(CCNC(=O)Cc2c(C(=O)O)n(C)c3ccccc23)cc1OC	0.9	-0.1
O=C(c1cc2nc3c(c(C(F)(F)F)n2n1)CCc1ccccc1-3)N1CCN(Cc2ccccc2)CC1	1.1	0.45
CCN1C(=O)c2ccccc2Sc2ccc(C(=O)NCc3ccc(C)cc3)cc21	0.83	-3.3
COc1ccc(-c2cc3nc(C)c(CCC(=O)Nc4cccc(C(F)(F)F)c4)c(C)n3n2)c(OC)c1	1.1	1.5
CCN1CCN(C(c2cccs2)C(C)NS(=O)(=O)c2ccc(Br)cc2)CC1 (stereo not drawn)	0.99	-0.25
CCn1c(=O)cc(OCC(=O)Nc2ccccc2Cl)c2ccccc21	1.1	1.5
CCOC(=O)c1ccccc1NC(=O)CCc1nc(-c2ccc(OC)cc2)no1	1.1	1.7
O=C(CCN1Cc2ccccc2C1)Nc1c2c(nc3c1CCC3)CCCC2	0.95	-0.58
Cc1c(-c2ccc(O)cc2)nc2nc(-c3ccccc3)c(-c3ccccc3)nn12	1	0.88
O=C(CSc1nnc(-c2ccc(Cl)cc2Cl)n1-c1ccccc1)N1CCOCC1	1	0.7
O=C(CN1CCN(Cc2ccc(Cl)cc2)C1=O)NC1CCCC1	1.1	0.69
O=C(Nc1ccc(Cl)c(-c2nc3ccccc3[nH]2)c1)c1cccc(F)c1	1	0.12
NC(=O)CNC1CC(=O)N(c2ccc(Br)cc2)C1=O (stereo not drawn)	1.1	1.2
